Screens as filed in PubChem.
H5N1 CPE – antiviral screen in MDCK cells, H5N1 avian flu; cytopathic effect, luminescence, 72 h; hits give high values; no value below 0 was filed and about half of the inactive calls have no number; reference of the scale not given here; inhibition, % at 50 µM; 96,000 compounds, 0.07% hits; in the data active means inhibition above about 25%
Numbers without * were called inactive; i = inactive. This is a subset (hit frequency here may not be typical).

SMILES | H5N1 CPE
COc1ccc(OC(=O)c2cnn(-c3ccccc3)c2C)cc1 | i
Cc1nc(-c2cccc(N)c2)cs1 | 0.1
COc1ccc(CCNC(=O)CN2CCC(C)CC2)cc1OC | i
COc1cc(Br)c(C(C)NC(=O)c2cccc(Br)c2)cc1OC (stereo unspecified) | i
COc1ccc(C2C(C(=O)NCCN3CCOCC3)c3ccccc3C(=O)N2C)cc1OC (stereo unspecified) | i
CCNc1nc(NC#N)nc(SCC(=O)OCC)n1 | i
C=CCNc1sc(C(=O)c2ccc(Br)s2)c(N)c1C#N | 0.7
Cc1ccc(C2NC(c3ccc(C)cc3)C(C)C(=NO)C2C)cc1 (stereo unspecified) | 0.0
CC(Sc1ccccn1)C(=O)Nc1ccccc1 (stereo unspecified) | i
CCn1c(SCc2nnc(-c3ccccc3)o2)nnc1-c1ccc(S(=O)(=O)N2CCCC2)cc1 | i
CC(=O)NCCn1ccc2ccccc21 | i
COc1ccc(-c2nc(-c3ccccc3)c(-c3cc([N+](=O)[O-])ccc3C)[nH]2)cc1O | 2.0
CCOc1ccc2nc(NC(=O)COC)sc2c1 | 0.5
CC1=C(C(=O)N2CCCCC2)C2(CCC(C)CC2)OC1=O (stereo unspecified) | 2.6
CCOC(=O)c1ccc(NC(=S)Nc2ccccn2)cc1 | i
Cc1c(C(=O)N2CCN(c3ccccn3)CC2)sc2ncnc(N3CCOCC3)c12 | 0.3
CN(C)C(/C=C/Nc1ccc(F)cc1F)=C(C#N)C#N | 0.7
COCCOC(=O)C1=C(C)N=c2s/c(=C\c3cccs3)c(=O)n2C1c1cccs1 (stereo unspecified) | i
CCOc1cccc(-c2nnc(SCC(=O)Nc3ccc(OC)c(OC)c3)n2N)c1 | i
Cc1cc(/N=C/N(C)C)on1 | i
CCc1ccc(NC(=O)N(CCN2CCOCC2)C2CCN(C(C)=O)CC2)cc1 | i
CNC(=O)c1cc2cc(OC)ccc2n1CCN(Cc1ccccc1)Cc1ccccc1 | 1.1
Cc1cc(C)cc(NC(=O)CN2CCC(NC(=O)Cc3ccccc3)CC2)c1 | i
Clc1cccc(Cl)c1CO/N=C/c1c(-c2ccccc2)nc2n1CCS2 | 2.1
O=C(Cn1c(CC(=O)N2CCCC2)nc2ccccc21)NCc1ccccc1 | 0.3

An excerpt from above in order of formula weight, low to high:
SMILES | H5N1 CPE
Cc1cc(/N=C/N(C)C)on1 | i
Cc1ccc(C2NC(c3ccc(C)cc3)C(C)C(=NO)C2C)cc1 (stereo unspecified) | 0.0
CNC(=O)c1cc2cc(OC)ccc2n1CCN(Cc1ccccc1)Cc1ccccc1 | 1.1

More structures:
SMILES | H5N1 CPE
Brc1ccc(-c2nc(N/N=C/c3cccnc3)c3ccccc3n2)cc1 | i
O=C(CSc1nnc(CNc2ccc(F)cc2)n1Cc1ccccc1)NCc1ccco1 | i
CCc1nnc(NC(=O)CSc2ncc(-c3ccccc3)n2C)s1 | 0.7
CCCOc1ccc(C(=O)Nc2ccc(N(C)C)cc2)cc1 | 1.5
CCOC(=O)c1c(NC(=S)Nc2ccccc2)sc2c1CCN(CC)C2 | 0.2
N#Cc1ccsc1NC(=O)CSc1ncnc2ccccc12 | 0.5
Cc1nn(-c2ccccc2)c(Cl)c1/C=N/Nc1ccc(S(=O)(=O)Nc2ccccc2C(=O)O)cc1[N+](=O)[O-] | i
COC(=O)c1cn(CC(=O)N2CCCCC2C)c2ccccc12 (stereo unspecified) | 0.9
Cc1ccc(N(C)C(=O)N2CCN(S(=O)(=O)c3c(C)cc(C)cc3C)CC2)cc1 | i
O=C(NNC(=O)c1cccnc1)Nc1cccc2ccccc12 | 2.0
O=C(Nc1ccccc1C(=O)N1CCOCC1)C1CC(=O)N(C2CCCC2)C1 (stereo unspecified) | 0.0
COc1ccc(/C=C2/SC(=S)N(n3c(C)ccc3C)C2=O)cc1 | 0.8
CCOc1cc(NC(=S)NCC2CCCO2)c(OCC)cc1NC(=O)c1ccccc1C (stereo unspecified) | 0.6
Cc1ccc2c(C(=O)CN3CCCC3)c(C)[nH]c2c1 | i
CCc1nnc(NC(=O)c2cc3ccccc3oc2=O)s1 | i
CCNc1nc(Sc2ccc(C)cc2)cc(C(F)(F)F)n1 | i
Cc1ccc(CNc2nc3ccc(C)cc3n3cnnc23)cc1 | 0.0
Cc1cc(C)nc(SCSc2nc(C)cc(C)n2)n1 | i
COC(=O)c1ccccc1Sc1c(/C=N/OCc2ccc(Cl)cc2)c(C(F)(F)F)nn1C | 1.1
CCc1c(C)nc(N2CCOCC2)[nH]c1=O | i
O=C(O)C1CCCCC1C(=O)NCCCCc1ccccc1 (stereo unspecified) | i
O=C(Nc1ccc(-c2nnco2)cc1)c1ccccc1 | 1.3
COc1ccc(OCc2nn3c(Cn4cnc5ccccc54)nnc3s2)cc1 | 2.2
Cn1c(=O)cc(SCC(=O)NCCN2CCN(c3ccccc3F)CC2)c2cc(Cl)ccc21 | 5.6
Cc1c(C(=O)N2CCCC2)sc(NC(=O)c2cccs2)c1C#N | i
The list continues.
SMILES | H5N1 CPE
CCn1c(CNc2ccc(F)cc2)nnc1SCCN1CCCCC1 | i
O=C(CSc1nnc(-c2ccc(Cl)cc2Cl)n1C1CCCCC1)NC1CCS(=O)(=O)C1 (stereo unspecified) | i
Cc1ccc2nc(NC(=O)CN(C)S(=O)(=O)c3ccc(Br)s3)sc2c1 | i
Cc1ccc(NC(=O)c2sc(Cl)nc2-c2ccccc2)cc1C | i
Cc1nn(-c2ccccc2)c2sc(C(=O)NCCN3CCOCC3)cc12 | i
CCSc1ccccc1C(=O)NCc1ccc2c(c1)OCO2 | 1.1
CNC(=O)CN(c1ccc(C(C)C)cc1)S(C)(=O)=O | i
CCn1c(=O)c(C)nn2c3ccccc3nc12 | 1.3
COc1ccc2nc(SCC(=O)NC(C)(C)C)[nH]c2c1 | i
C=CCN1C(=Nc2cccnc2)SCC1(O)c1ccc(C)cc1 (stereo unspecified) | i
CSc1ncccc1C(=O)OCC(=O)c1cc2ccccc2o1 | i
CCCS(=O)(=O)N1CCN(CC2CC3C=CC2C3)CC1 (stereo unspecified) | 0.3
COc1ccc(C2=NCC(=O)N(CC(=O)NCc3ccco3)c3sc4c(c32)CCCC4)cc1 | i
C=C(C)CSc1nnc(-c2cccc(Cl)c2)n1N | 0.0
COc1ccc(C(=O)Nn2cnc3ccccc3c2=O)c(OC)c1 | i
CCn1c2ccccc2c2nnc(SCC(=O)OCN3C(=O)c4ccccc4C3=O)nc21 | 1.9
COc1ccc(N(C(=O)Cn2nnc3ccccc32)C(C(=O)NCc2ccco2)c2cccnc2)cc1 (stereo unspecified) | 0.9
C=CC[n+]1c(-c2ccc(C)cc2)csc1NNC(=O)Nc1ccccc1 | i
NC(=O)CSC1=Nc2ccccc2C2=NC(CCC(=O)NCc3ccc(F)cc3)C(=O)N12 (stereo unspecified) | 1.2
CN(C)c1ccc(C2OC(=O)C(C)(C)C(=O)C2(C)C)cc1 (stereo unspecified) | 0.8
O=C(NCCCN1CCN(c2ccccc2F)CC1)C1CCN(S(=O)(=O)c2cccs2)CC1 | 3.7
N#Cc1c(C(F)(F)F)cc(-c2ccccc2)nc1SCCN1CCOCC1 | 0.1
CSCCC(NC(=O)C12CC3CC(CC(C3)C1)C2)C(=O)OCC(=O)c1ccc(Cl)cc1 (stereo unspecified) | i
O=C(c1cccc(Br)c1)N1CCN(C(=O)N2CCCCC2)CC1 | i
Cn1cccc1Cc1nnc(SCC(=O)NCC2CCCO2)n1-c1ccc(F)cc1 (stereo unspecified) | i
More compounds follow.
SMILES | H5N1 CPE
C/C(=N\NC(=O)CSCc1ccc(Cl)cc1)c1ccc(NC(=O)c2ccccc2)cc1 | i
COC(=O)c1[nH]c2c(c1C)C(=O)CC(c1cccs1)C2 (stereo unspecified) | i
CCCS(=O)(=O)N1CCC(C(=O)NCc2ccccc2Cl)CC1 | i
CCOC(=O)C1CCCN(c2c(N3CCN(C4CCCCC4)CC3)c(=O)c2=O)C1 (stereo unspecified) | 0.3
COc1ccc(N2CCN(c3cc(=O)n(Cc4ccc(F)cc4)c(=O)[nH]3)CC2)cc1 | i
COc1ccc(C(=O)c2ccc(N(C)C)cc2)c(OC)c1 | i
CC(c1ccccc1F)n1cc(C(=O)NCCc2ccco2)nn1 (stereo unspecified) | 1.5
CCOC(=O)c1csc(NC(=O)CSc2nnnn2-c2ccc(OC)cc2)n1 | i
O=C(COc1ccc(-c2nnco2)cc1)N1CCN(S(=O)(=O)c2ccc3ccccc3c2)CC1 | 0.7
COc1nc(C)ccc1-c1noc(-c2ccco2)n1 | i
CC1=Nn2c(nnc2-c2ccco2)SC1 | 0.2
CC(C)COC(=O)c1cc(=O)[nH]c2ccccc12 | 0.3
Cc1cccn2c(=O)c(C=Nc3ccccc3)c(NCc3ccco3)nc12 | 21.5
O=c1[nH]c(=O)n(CCC2=CCCCC2)c(O)c1C=NC1CCN(Cc2ccccc2)CC1 | i
CC(=O)Nc1ccc(S(=O)(=O)N2CCSC2C(=O)O)cc1 (stereo unspecified) | 0.3
Cc1ccnc(N2C(=O)c3ccccc3C2O)c1 (stereo unspecified) | i
CCN(CC)S(=O)(=O)c1ccc(N2CCCC2)c(C(=O)OCC(=O)/C(C#N)=C(\C)N)c1 | 1.5
COc1ccc(CCN2CNc3c(c(=O)n(C)c(=O)n3C)C2)cc1OC | 0.2
Cc1cc(C)c2c(-n3cccc3)nn(C)c2n1 | 3.1
CCN(CC(=O)NCc1cccs1)S(=O)(=O)c1ccc(C(C)C)cc1 | i
CCOc1ccc(Nc2cc(=O)oc3ccccc23)cc1 | i
CCOC(=O)C1CCCN(C(=O)c2cc3c(C)nc4ccccc4c3o2)C1 (stereo unspecified) | 1.9
CNC(=O)NC(=O)COC(=O)CCCOc1ccc(OC)cc1 | i
CCOC(=O)c1ccc(N=c2sc(C(=O)OC)cc(=O)n2Cc2ccc3c(c2)OCO3)cc1 | i
COC(=O)c1sccc1NC(=S)N1CC(C)CC(C)C1 (stereo unspecified) | 3.4
Additional results follow:
SMILES | H5N1 CPE
COc1ccc(CCC(=O)Nc2cc(Cl)ccc2OC)cc1 | 0.1
CCC(C(=O)NC1CCCCC1)N(CC1CCCO1)C(=O)CNS(=O)(=O)c1ccc(OC)cc1 (stereo unspecified) | i
COn1c(-c2ccc(Cl)cc2)nc2ccc(Cl)cc21 | i
Cc1ccc(C)c(N2CC(=O)N(c3cc(C)ccc3C)CC2=O)c1 | i
c1ccc(-c2c(-c3ccccc3)n(Cc3ccco3)c3ncnc(NCCCn4ccnc4)c23)cc1 | i
COC(=O)c1cc2occc2n1Cc1c(F)cccc1Cl | i
COCCCNC(=O)CSc1nc2ccccc2c(=O)n1CCCC(=O)NCC1CCCO1 (stereo unspecified) | 0.8
O=C(CCn1nnc2ccccc21)Nc1nnc(Cc2ccccc2)s1 | 0.2
Fc1ccc(NC(=S)NCc2ccccn2)cc1 | i
CCS(=O)(=O)c1ccc(O)c(NC(=O)c2cc(OC)c(OC)c(OC)c2)c1 | 0.2
CN(C)c1ccc(C2NCCS2)cc1 (stereo unspecified) | i
S=c1[nH]nc(Cc2sc(-c3ccccc3)nc2-c2ccccc2)o1 | 0.7
CC1Cc2ccccc2N1C(=O)Cn1cc([N+](=O)[O-])cn1 (stereo unspecified) | 0.1
COc1ccc(-c2nc(CSCC(=O)NC3CCCc4ccccc43)c(C)o2)cc1OC (stereo unspecified) | i
O=C(c1ccccc1)c1ccc(OCC(O)CN2CCCCC2)cc1 (stereo unspecified) | i
CCCN1CCN(C(=O)Cn2c(=O)oc3cc(S(=O)(=O)NCc4ccccc4)ccc32)CC1 | 2.7
CC(NC(=O)c1ccccc1Cl)C(=O)O (stereo unspecified) | i
O=C(c1ccccc1Cl)N1CCC(c2nc3c(nnn3Cc3ccco3)c(=O)[nH]2)CC1 | 3.1
CCc1ccc(N(C(=O)c2csnn2)C(C(=O)NCc2ccccc2)c2ccco2)cc1 (stereo unspecified) | i
CCOC(=O)c1c(C)n(Cc2ccco2)c2c1cc(O)c1ccccc12 | i
Cc1cccc(NC(=O)Cn2cccc2)c1 | 1.1
O=C(CNC1CCCCCC1)Nc1ccccc1N1CCCCC1 | i
Cc1ccc(CNS(=O)(=O)c2cn(C)cn2)cc1 | 0.9
Cc1cc(C)c2c(=O)[nH]c(SCC(=O)N3CCCCC3)nc2n1 | i
O=C(NC1C(=O)NNC1c1ccccc1)c1ccccc1 (stereo unspecified) | i
(list continues)
SMILES | H5N1 CPE
COCCCn1c(SCC(=O)N(C)C)nnc1-c1ccccc1 | 0.3
CCN1C(=O)/C(=C/c2cccs2)N(C)C1=S | 2.5
CNS(=O)(=O)c1cccc(C(=O)OC2CCCCC2=O)c1 (stereo unspecified) | i
Cc1cc(C)n(-c2nc3ccccc3nc2N2CCN(C(=O)c3ccccc3)CC2)n1 | 1.4
COc1ccc(C(=O)Nc2ccncc2)cc1OC | i
CCn1c(=NC(=O)CN2C(=O)CCC2=O)sc2c(OC)ccc(OC)c21 | 1.7
COC(=O)c1ccc(NC(=O)CN(C)S(=O)(=O)c2ccc(OC)c(C)c2)cc1 | i

Of the compounds above, these contain a thiophene ring, fused or not.
SMILES | H5N1 CPE
C=CCNc1sc(C(=O)c2ccc(Br)s2)c(N)c1C#N | 0.7
Cc1c(C(=O)N2CCN(c3ccccn3)CC2)sc2ncnc(N3CCOCC3)c12 | 0.3
COCCOC(=O)C1=C(C)N=c2s/c(=C\c3cccs3)c(=O)n2C1c1cccs1 (stereo unspecified) | i
CCOC(=O)c1c(NC(=S)Nc2ccccc2)sc2c1CCN(CC)C2 | 0.2
N#Cc1ccsc1NC(=O)CSc1ncnc2ccccc12 | 0.5
Cc1c(C(=O)N2CCCC2)sc(NC(=O)c2cccs2)c1C#N | i
Cc1ccc2nc(NC(=O)CN(C)S(=O)(=O)c3ccc(Br)s3)sc2c1 | i
Cc1nn(-c2ccccc2)c2sc(C(=O)NCCN3CCOCC3)cc12 | i
COc1ccc(C2=NCC(=O)N(CC(=O)NCc3ccco3)c3sc4c(c32)CCCC4)cc1 | i
O=C(NCCCN1CCN(c2ccccc2F)CC1)C1CCN(S(=O)(=O)c2cccs2)CC1 | 3.7
COC(=O)c1[nH]c2c(c1C)C(=O)CC(c1cccs1)C2 (stereo unspecified) | i
CCN(CC(=O)NCc1cccs1)S(=O)(=O)c1ccc(C(C)C)cc1 | i
COC(=O)c1sccc1NC(=S)N1CC(C)CC(C)C1 (stereo unspecified) | 3.4
CCN1C(=O)/C(=C/c2cccs2)N(C)C1=S | 2.5
